Source: PubChem BioAssay (several laboratories)
BJeLR viability – BJeLR cell viability loss. BJeLR (HRASV12) viability, CellTiter-Glo ATP luminescence, 48 h; reference of the scale not given here. inhibition, % (test concentration not listed). 0.17% of 300,000 active;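 active = replicate mean above 50%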;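 also: 50 nL library stock added to about 25 µL; numbers are from one replicate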
PrP UTR inh – suppresses PrP 5' UTR mRNA reporter expression; cell-based PrP 5' UTR mRNA reporter, plate reader; inhibition, % (no concentration beside the values); 0.35% of 340,000 active; AID 488862;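 active = every replicate at 50% or more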;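 also: 0 = median of the neutral control wells; tested in H4 reporter cells; numbers are from one replicate; inactives centre near -14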
Mtb hypoxia rep – Mtb hypoxia fluorescent reporter inhibition; M. tuberculosis hypoxia-regulated fluorescent reporter, fluorescence; fluorescence inhibition, % (no concentration beside the values); 0.1% of 300,000 active; AID 1159583;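 active = 35 to 45% if threefold the growth effect, above 45% if 1.5-fold the growth effect; inactive = the rest, general growth blockers included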;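 also: wells of about 50 µL received 100 nL stock; 0% = vehicle wells and 100% = reference inhibitor wells; whole bacteria with a GFP reporter of the hypoxia response; strong numbers were not always called active; many hits fall short of the cut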
Bead autofluor – flagged as autofluorescent in microsphere protease counterscreen | 3.1% of 360,000 active | compound autofluorescence counterscreen, microsphere flow cytometry; stronger effect = higher value | fluorescence intensity (test concentration not listed);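 active = at least 3 SD above the mean of all compounds, about 16000 in these data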;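 also: 100 nL of 1 mM stock went into each well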
Sa ugtP lethal – growth inhibition of S. aureus ugtP deletion strain | 0.54% of 330,000 active | S. aureus RN4220 ugtP deletion, OD600 growth, 16 h; some inactives read as strong as hits | growth inhibition, % (no concentration beside the values) | AID 1259309;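 active = z-score under -3 and OD600 up to 0.15 on both plates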;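 also: plate controls were untreated wells for no effect and antibiotic for full effect; wells of about 80 µL received 100 nL stock; the first replicate is given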
RN4220 kill – kills Staphylococcus aureus RN4220; AID 1259311; 0.33% of 330,000 active; inhibition, % (test concentration not listed); S. aureus RN4220 growth, OD600, 16 h;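 active = z-score of -3 or lower and OD600 up to 0.18 on both plates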;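 also: plate controls were untreated cells for no effect and reference antibiotic for full effect; stock transfer was 100 nL into about 80 µL; one replicate is shown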
Mtb hypoxia rep growth – further read-out of Mtb hypoxia rep, marked with its call; growth inhibition, %; measured here: M. tuberculosis growth (absorbance);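 0% = vehicle and 100% = reference antibiotic; read after six days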
An asterisk follows results filed as active; . = no result given; & = joins results of further samples.

compound,Sa ugtP lethal,RN4220 kill,BJeLR viability,PrP UTR inh,Bead autofluor,Mtb hypoxia rep growth,Mtb hypoxia rep
COc1cccc(-c2nc(CS(=O)(=O)CC(=O)NCCc3ccccc3)c(C)o2)c1,6,2.0,4,-10,4594,2,4
CCOc1ccc(-n2c(=O)cc(N3CCN(c4ccccc4)CC3)[nH]c2=O)cc1,-3,0.6,4,-4,21972*,9,4
NS(=O)(=O)c1ccc(NC(=O)COC(=O)CCC2CCCCC2)cc1,14,3.2,2,-6,2571,3,6
CSc1ccc(CN(C)C(=O)CNC(=O)c2sc3ccccc3c2Cl)cc1,1,-5.3,-6,-31,6460,3,8
Cc1csc2ncc(C(=O)Nc3ccc(C(F)(F)F)cc3)c(=O)n12,5,-3.9,1,-24,4353,7,0
CCc1ccc2[nH]c(=O)c(CN(CCN(C)C)C(=O)Nc3ccccc3OC)cc2c1,-1,5.2,0,-19,2510,1,15
O=C(Oc1cc2oc(=O)c3c(c2cc1Cl)CCCC3)c1ccco1,-1,5.2,-4,-9,3702,3,2
CCN(CC)C(=O)C(=Cc1cccc([N+](=O)[O-])c1)NC(=O)c1ccco1,-5,2.3,.,.,.,16,-1
Cc1cc(NC(=O)CSc2nncn2N)no1,3,2.0,-3,-4,4389,11,2
COc1ccc(-n2c(C)nnc2SCC(=O)NC2CC2)cc1,.,.,-9,-38,3106,.,.
O=C1NC(=O)C2(Cc3ccccc3N3CCOCC32)C(=O)N1c1ccccc1 (stereo not given),16,4.8,16,-29,22770*,4,13
CCOc1ccc(C2=CC(c3ccccc3)n3ncnc3N2)cc1 (stereo not given),.,.,-4,-19,2911,.,.
COc1ccc(OC)c(N2CC(O)(c3ccccc3)[N+]3=C2SCCC3)c1 (stereo not given),6,1.3,-1,-25,3143,12,14
CCNc1nc(NCC)n2c(SCC(=O)Nc3ccc(F)cc3[N+](=O)[O-])nnc2n1,3,-3.1,-3,-22,4334,0,0
O=C(CN1C(=O)c2ccccc2C1=O)OCC(=O)N1CCN(c2ccccc2)CC1,3,1.9,-10,-12,5795,-1,0
CCC(C)NC(=O)c1cn(CCOC)c(=O)c2c1c1ccccc1n2C (stereo not given),-2,1.2,11,-10,3280,2,-5
Nc1nnnn1N=Cc1ccco1,-3,1.5,.,.,.,2,5
Cc1ccc(C)n1-c1ccccc1N1CCCCC1,4,48,-10,-9,4398,-1,11
COn1c(=O)c(-c2cccc(Br)c2)[n+]([O-])c2ccccc21,7,18,-3,-10,3856,-1,-2
O=C(C[n+]1ccncc1)c1ccccc1,3,-2.2,1,-2,4029,2,-5
COc1cccc(CN2CC(C(=O)NCCCCc3ccccn3)CCC2=O)c1 (stereo not given),4,1.2,-3,-7,4500,3,16
CN(CC(Cc1ccccc1)N(CC(CC1CCCCC1)N(CCc1ccccc1)N=O)N=O)N=O (stereo not given),3&8,3.8&11,.,.,.,5&5,9&8
CCOc1ccc(C2/C(=C(\O)c3cccc(OC)c3)C(=O)C(=O)N2c2cc(C)on2)cc1OC (stereo not given),.,.,0,-10,3125,.,.
COC(=O)c1[nH]c2ccc(C)cc2c1NC(=O)CN1CCCC(C)(C)C1,-21,-8.4,-3,-7,2524,4,3
CN(C/C=C/C#CC(C)(C)C)Cc1cccc2ccccc12,.,.,-9,1,5850,.,.
O=P(O)(CCCP(=O)(O)CCc1ccccc1)CCc1ccccc1,5,5.7,1,-11,3169,-7,-1
Cc1c(Br)c([N+](=O)[O-])nn1CC(=O)N1CCCc2ccccc21,7,3.3,14,-1,2790,9,12
COc1ccc(NS(=O)(=O)c2cccc(C(=O)NN=Cc3ccc(O)cc3)c2)cc1,2,-4.8,.,.,.,8,8
Cc1ccc(/C=C/C(=O)N2CCN(S(=O)(=O)c3c(C)c(C)cc(C)c3C)CC2)o1,-7,7.5,3,-41,2245,5,11
Cc1cc2oc(=O)cc(CN3CCN(C/C=C/c4ccccc4)CC3)c2cc1O,.,.,9,-1,23462*,.,.
COc1ccc(Cn2c(-c3ccc(C)cc3)c[n+]3ccccc23)cc1,-9,2.3,10,-16,2011,10,18
CC1CCc2c(sc(NC(=O)COC(=O)C3CCCO3)c2C#N)C1 (stereo not given),-10,-3.9,6,-14,4481,2,-5
O=C(OCC#CCSc1nnc(-c2ccc(Br)cc2)o1)c1cccs1,-1,9.4,3,-20,2981,25*,41*
CC(=O)Nc1ccc(S(=O)(=O)N2C(C)CCCC2C)cc1 (stereo not given),0,8.5,2,-11,4324,2,-3
CC(C)(C)NC(=O)CN(Cc1ccco1)C(=O)CCC(=O)Nc1nccs1,2,-2.0,-8,-8,4605,-4,-5
CCCCN(CC)Cc1c(C)[nH]c2c(ccc3ccccc32)c1=O,14,4.6,-6,-20,3581,13,16
O=C(O)c1ccc(/C=N/NC(=S)NCc2ccccc2)cc1,.,.,2,-7,3201,.,.
O=C(COc1ccc(F)cc1)N(Cc1cccs1)C1CCS(=O)(=O)C1 (stereo not given),4,4.1,-2,-17,5726,-2,6
CCC(NC(=O)c1ccccc1NC(=O)c1ccco1)C(=O)NNC(=O)c1ccc(OC)cc1 (stereo not given),3,5.6,-3,-20,2339,5,3
CSc1cccc(NC(=O)c2cnn3ccccc23)c1,4,0.8,7,-95,5260,-5,7
Cc1c(CCOC(=O)c2ccc(N3CCOCC3)c([N+](=O)[O-])c2)sc[n+]1CC#N,4,2.9,7,-12,3003,1,-9
Cc1cc(C=NNc2nc(N3CCOCC3)nc(N3CCOCC3)n2)c(C)n1-c1ccccc1,6,2.6,.,.,.,7,8
CCCCn1c(N)c(Br)c(=O)[nH]c1=O,1,4.2,12,-21,3620,10,14
Cc1ccc(OCCSc2nc3ncnc(N)c3[nH]2)cc1,5,3.5,-6,-24,4128,5,7
COc1ccc(S(=O)(=O)Nc2ccc3c(c2)C(=O)N([C@H](C)CO)C[C@H](C)[C@@H](CN(C)S(=O)(=O)c2cccs2)O3)cc1,2,0.6,.,7,3090,6,6
COc1ccc(Sc2nnc(-c3ccccc3)cc2C#N)cc1,9,9.9,9,-16,2105,.,.
Cc1ccccc1N1CCN(CC(=O)Nc2nccs2)CC1,11,2.3,-4,-24,3451,7,12
O=C(NCC1CCCO1)c1cccc(-n2cnnn2)c1 (stereo not given),12,1.4,5,-20,3153,.,.
C/C(=N\NC(=O)COc1ccc([N+](=O)[O-])cc1)C(C)(C)C,.,.,1,-4,8015,.,.
COc1cc2c(cc1OC)CN(C(=O)c1ccc(Br)o1)CC2,4,4.7,-21,-13,5444,4,20
COc1ccccc1CNc1n[nH]c(NCc2ccccc2OC)n1,-2,1.0,.,-6,2790,.,.
COC(=O)c1sccc1NC(=O)/C=C\c1ccc(Cl)cc1Cl,-9,2.2,.,-69,2587,.,.
CCOC(=O)C1CCCN(C(=O)C2CCCN(S(C)(=O)=O)C2)C1 (stereo not given),3,4.0,-11,-25,12591,11,22
OCC1CCCC(n2cnc3c(=S)nc[nH]c32)O1 (stereo not given),8,4.6,-3,-9,4203,21,8
O=C(CNc1ccccc1)c1ccc([N+](=O)[O-])cc1,.,.,18,-16,2648,.,.
O=C(c1ccco1)N1CCN(C(=O)c2cnn3c(C(F)(F)F)cc(-c4cccs4)nc23)CC1,2,4.2,12,-21,10319,8,0
O=C(CCN1C(=O)c2ccccc2C1=O)NC1=NCCS1,-6,-4.5,-6,-8,3622,-4,-2
O=C(CCNS(=O)(=O)c1cccc2nonc12)N1CCN(c2cccc(Cl)c2)CC1,10,0.5,-1,-16,2473,.,.
CCOC(=O)C1=C(C)N(c2ccccc2)C(=O)NC1c1cccc([N+](=O)[O-])c1 (stereo not given),2,2.6,-26,12,9429,3,10
Cc1ccccc1NS(=O)(=O)c1ccc(OCC(=O)NCc2cccnc2)cc1,1,4.4,-8,-1,2585,0,10

An excerpt from further up, as a working copy:
compound,Sa ugtP lethal,RN4220 kill,BJeLR viability,PrP UTR inh,Bead autofluor,Mtb hypoxia rep growth,Mtb hypoxia rep
OCC1CCCC(n2cnc3c(=S)nc[nH]c32)O1 (stereo not given),8,4.6,-3,-9,4203,21,8
O=C(CNc1ccccc1)c1ccc([N+](=O)[O-])cc1,.,.,18,-16,2648,.,.
O=C(c1ccco1)N1CCN(C(=O)c2cnn3c(C(F)(F)F)cc(-c4cccs4)nc23)CC1,2,4.2,12,-21,10319,8,0
O=C(CCN1C(=O)c2ccccc2C1=O)NC1=NCCS1,-6,-4.5,-6,-8,3622,-4,-2
O=C(CCNS(=O)(=O)c1cccc2nonc12)N1CCN(c2cccc(Cl)c2)CC1,10,0.5,-1,-16,2473,.,.

(listing goes on)
compound,Sa ugtP lethal,RN4220 kill,BJeLR viability,PrP UTR inh,Bead autofluor,Mtb hypoxia rep growth,Mtb hypoxia rep
CC(C)n1cc(C=C2NC(=O)NC2=O)c2ccccc21,2,7.7,.,.,.,-1,8
COC(=O)c1ccccc1NC(=O)c1nc2nc(C)cc(C(F)F)n2n1,-4,-7.4,0,-24,3725,6,18
Cc1cc(C)n(C(=O)c2ccc([N+](=O)[O-])cc2[N+](=O)[O-])n1,10,8.8,0,-6,2455,11,10
Cc1ccc(NC(=O)COC(=O)CN2CCCCCC2=O)cc1C,2,4.5,.,.,.,-8,6
O=C(COC(=O)C1(c2ccccc2F)CCCC1)N1CCN(C(=O)c2ccco2)CC1,14,1.1,-13,-23,5996,6,9
CCOC(=O)N1CCC(N2C(=O)c3ccccc3C2Nc2ccc(Cl)cn2)CC1 (stereo not given),-8,2.1,0,-13,5449,-1,2
COc1ccc2c(c1)CCCC21SC(NC(C)=O)=NN1C(C)=O (stereo not given),0,-0.2,2,-11,4239,1,-8
CCCOC(=O)CCc1n[nH]c(=O)[nH]c1=O,-1,2.5,-6,-12,4279,.,.
Cc1noc(C)c1COC(=O)COc1ccc2c(C)cc(=O)oc2c1,5,4.0,-2,-13,3721,8,-1
Cc1ccc(N(C(C)C(=O)N2CCOCC2)S(C)(=O)=O)cc1C (stereo not given),2,4.1,-3,-12,3914,14,-2
Cc1ccc(C(=O)NCC(=O)OCC(=O)c2cc(C)n(Cc3ccco3)c2C)cc1,-1,1.8,-8,-10,7034,3,7
COc1ccc(NC(=O)C2CCCN2S(=O)(=O)c2ccc(C)cc2)cc1 (stereo not given),13,0.8,5,-18,17367*,8,8
CC(C)(CN1CCCC1)NC(=O)C1CCC(=O)N(CCCN2CCOCC2)C1 (stereo not given),6,0.6,1,1,4875,0,7
O=C(NCC(c1cccs1)N1CCOCC1)C1CCN(S(=O)(=O)c2c(Cl)cccc2Cl)CC1 (stereo not given),8,-0.8,-3,-17,5624,5,1

Random draw from the library, and some 4% of all compounds hit somewhere here.
